# Screens: PubChem, several laboratories
# RN4220 kill – growth inhibition of S. aureus RN4220, primary screen, OD600; actives 0.33% (n = 330,000); 16 h; AID 1259311, 2017; inhibition, % (no concentration beside the values);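 active means z-score of -3 or lower and OD600 up to 0.18 on both plates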;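 further: plate controls were untreated cells for no effect and reference antibiotic for full effect; stock transfer was 100 nL into about 80 µL; one replicate is shown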
# BJeLR lethal – MLPCN primary cell-based screen for lethality selective to Ras in HRASV12 cells; inhibition, % (no concentration beside the values); AID 1554, 2009; BJeLR (HRASV12) viability, CellTiter-Glo ATP luminescence, 48 h; reference of the scale not given here; actives 0.17% (n = 300,000);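 active means replicate mean above 50%; inconclusive means above 50% but judged a plate artefact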;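 further: 50 nL library stock added to about 25 µL; numbers are from one replicate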
# PrP UTR inh – inhibition of PrP 5' UTR reporter expression | actives 0.35% (n = 340,000) | AID 488862, 2010 | inhibition, % (concentration not given with the values) | cell-based PrP 5' UTR mRNA reporter, plate reader;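 active means every replicate at 50% or more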;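 further: 0 = median of the neutral control wells; tested in H4 reporter cells; numbers are from one replicate; inactives centre near -14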
# Autofluor counter – compound fluorescence in toxin protease inhibitor counterscreen; compound autofluorescence counterscreen, microsphere flow cytometry; hits give high values; fluorescence intensity (no concentration beside the values); AID 624483; actives 3.1% (n = 360,000);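 active means at least 3 SD above the mean of all compounds, about 16000 in these data; inconclusive means too few beads counted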;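 further: 100 nL of 1 mM stock went into each well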
# Mtb hypoxia inh – PubChem AID 1159583 | M. tuberculosis hypoxia-regulated fluorescent reporter, fluorescence | fluorescence inhibition, % (no concentration beside the values) | actives 0.1% (n = 300,000);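 active means 35 to 45% if threefold the growth effect, above 45% if 1.5-fold the growth effect; inactive means the rest, general growth blockers included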;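 further: wells of about 50 µL received 100 nL stock; 0% = vehicle wells and 100% = reference inhibitor wells; whole bacteria with a GFP reporter of the hypoxia response; strong numbers were not always called active; many hits fall short of the cut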
# ugtP null kill – growth inhibition of ugtP-null S. aureus, primary screen, RN4220 ugtP deletion, OD600. growth inhibition, % (concentration not given with the values). 16 h; some inactives read as strong as hits. actives 0.54% (n = 330,000);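 active means z-score under -3 and OD600 up to 0.15 on both plates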;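 further: plate controls were untreated wells for no effect and antibiotic for full effect; wells of about 80 µL received 100 nL stock; the first replicate is given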
# Mtb hypoxia inh growth – further read-out of Mtb hypoxia inh, marked with its call; growth inhibition, %; measured here: M. tuberculosis growth (absorbance);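 0% = vehicle and 100% = reference antibiotic; read after six days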
# * = called active by the depositor; ? = inconclusive; . = not tested or not shown. Outcome played no part in choosing rows; 4.1% or so of the library scored in one or more.
SMILES,RN4220 kill,BJeLR lethal,PrP UTR inh,Autofluor counter,Mtb hypoxia inh,Mtb hypoxia inh growth,ugtP null kill
CCSC1=C(C#N)C(=O)n2c1cc1c2CCCC1,30,-4,-15,5812,12,3,1
CNC(=O)c1[nH]cnc1C(=O)Nc1cccc(Cl)c1,-7.0,.,-3,3503,3,11,-4
COc1cccc(C(=O)Oc2cc(C)[nH]c(=O)c2[N+](=O)[O-])c1,1.1,-2,-15,3055,-9,10,3
COCC1CCCN(Cc2cn(-c3ccccc3)nc2-c2ccc3c(c2)OCO3)C1 (stereo unspecified),4.0,-5,-20,3933,-13,13,-1
COC(=O)c1[nH]c2ccc(F)cc2c1NC(=O)CCN1CCN(C(=O)c2ccco2)CC1,6.1,-1,.,.,16,7,-1
Cc1ccc(-c2c(C(=O)N(C)Cc3ccccc3)oc(=O)c3ccccc23)cc1,-5.0,12,-9,2435,-1,1,-1
COC(=O)C1=C(c2cccc(OCc3ccccc3)c2)CC2CCC1N2C(=O)NCc1ccc(Cl)cc1 (stereo unspecified),-13,.,.,.,7,2,10
Cc1sc2ncn(CC(=O)NCc3ccco3)c(=O)c2c1-c1ccc(F)cc1,-3.7,6,3,2595,10,-9,0
COc1cc(/C=C2\C(=O)N(c3ccc(S(N)(=O)=O)cc3)N=C2C)ccc1OC(=O)c1ccco1,8.1,3,3,4736,8,9,15
COC(=O)CSc1ccc(S(=O)(=O)N2CCC(C)CC2)cc1[N+](=O)[O-],6.2,-5,-18,2500,11,17,4
COc1ccccc1P(=O)(c1ccccc1)c1ccccc1,6.1,11,-11,3555,8,0,6
CC1(C(=O)Nc2cccc3ccccc23)CC1(Br)Br (stereo unspecified),12,5,-13,5899,-4,14,1
CCCN1CNC(=S)N(c2ccccc2OC)C1,6.0,5,-12,7908,13,5,5
CCC(=O)N(C)CCc1cc2c(c(OC)c1/C=N/NC(=O)c1ccc(Br)cc1)OCO2,.,-14,-5,2380,.,.,.
CC(=O)ON=Cc1c(Cl)n(C)c2ccccc12,-1.5,.,.,.,4,13,1
COc1cc(/C=N/NC(=O)c2ccncc2)ccc1OC(C)=O,.,-4,-14,3879,.,.,.
O=C(COC(=O)CCc1ccc(S(=O)(=O)N2CCOCC2)cc1)NC1CCCCCC1,0.7,-5,7,2142,11,5,3
CN(C)CCOCCOc1ccccc1-c1ccccc1,2.2,2,-28,11361,9,3,-2
CCOC(=O)CN(C)C(=O)CCc1nnc(-c2ccc(-c3ccccc3)cc2)o1,6.4,-10,-20,3363,17,8,-3
N=c1c(C(=O)NC2CCCC2)cc2c(=O)n3ccccc3nc2n1C1CCCCC1,-0.6,-6,-5,5392,-9,4,7
CC(C)CCN1CCN(Cc2c(F)cccc2Cl)CC1CCO (stereo unspecified),2.2,0,-10,2062,-8,-2,9
CC(OC(=O)c1cccc(-n2cnnn2)c1)C(=O)NCc1ccccc1 (stereo unspecified),1.7,-1,-10,6199,5,4,-4
CC(=NC1CCN(Cc2ccccc2)CC1)c1c(O)n(C)c(=O)n(C)c1=O,-1.2,8,-7,22516*,-6,-1,-10
CCOc1ccccc1C=NNC(=O)CNC(=O)COc1ccccc1,1.6,.,.,.,17,9,5
CC(C)CC(c1nnnn1CC1CCCO1)N1CCN(Cc2ccc3c(c2)OCO3)CC1 (stereo unspecified),5.1,-8,-13,3471,.,.,6
# (next part)
SMILES,RN4220 kill,BJeLR lethal,PrP UTR inh,Autofluor counter,Mtb hypoxia inh,Mtb hypoxia inh growth,ugtP null kill
C=CCn1c(N)cc(=O)nc1SCC(=O)N1CCN(c2ccc(F)cc2)CC1,-2.0,-4,-25,8205,-1,0,-4
CC(C)(C)c1ccc(C(=O)Nc2ncn[nH]2)cc1,-3.8,-5,-53,4453,3,8,-4
CCn1c(SCC(=O)c2c(N)n(C3CC3)c(=O)[nH]c2=O)nnc1-c1ccoc1C,3.0,.,-23,4054,10,-3,-1
C/C(CC(=O)Nc1ccc(C)c(Cl)c1)=N\NC(=O)c1ccco1,.,0,-9,4434,.,.,.
O=[N+]([O-])c1cccc(-c2ccc(/C=N/NC(=S)Nc3cccc(F)c3)o2)c1,.,-9,-1,4358,.,.,.
O=C(NNC(=S)NC1CCCCC1)c1cccc(S(=O)(=O)Nc2ccccc2Cl)c1,7.5,20,-10,2518,13,3,10
CC(=O)Nc1ccc(OC(=O)C(CCS(C)(=O)=O)N2C(=O)c3ccccc3C2=O)cc1 (stereo unspecified),-1.7,2,9,3009,.,.,7
CC1(C)C(c2cccs2)=[N+]([O-])C2(CCCCC/C2=N\O)N1O (stereo unspecified),.,8,-4,24784*,.,.,.
Cc1cc(O)c(C(C)C)cc1NC(=O)c1ccccc1Cl,-6.5,7,-6,2467,16,12,0
Cc1ccnc(NC(=O)c2cnc(Cl)c(Cl)c2)c1,-1.0,-2,-35,3457,1,7,9
CCOc1ccc(S(=O)(=O)NCCC(=O)OCC(=O)c2ccc[nH]2)cc1,8.4,4,-18,4209,5,-3,3
CC(C(=O)Nc1ccccc1C(=O)O)n1c(C(F)(F)F)nc2ccccc21 (stereo unspecified),7.0,7,-23,2551,-2,0,15
O=C(c1ccccc1Cl)N1CCC(O)(c2cccnc2)CC1,3.6,8,-8,2586,7,1,-7
C=C(C)C(=O)Nc1cccc(C2=NOC3(C2)C[C@@H](C(N)=O)N(C(=O)C(=C)C)C3)c1 (stereo partly specified),.,1,-26,3743,.,.,.
CCOC(=O)CSc1nc2cc(OC)ccc2cc1C#N,4.9,1,-57,3381,-2,8,-1
O=C(N/N=C/c1ccc(O)cc1)c1cc(-c2ccc3c(c2)OCO3)n[nH]1,.,-1,-4,9211,.,.,.
CC(C)N(c1nnc(N)s1)C(C)C,2.0,-2,-14,4032,7,12,5
Cc1cc(C)c(N=C2CCCN2Cc2ccccc2)c(C#N)c1,2.3,-4,-17,2341,4,1,6
CCCN1C(=O)c2ccccc2NC1c1ccc(O)c(OCC)c1 (stereo unspecified),2.7,-22,-19,4069,16,-1,5
COc1ccc(NC(=O)NNC(=O)c2ccccc2-n2cccc2)cc1OC,1.3,-2,5,4061,3,9,5
O=C(COC(=O)c1ccc2ccccc2c1)NCCCc1ccccc1,3.3,1,-19,2260,7,3,6
CC(=O)Nc1ccc(SCCN2CCC(C)CCC2=O)cc1 (stereo unspecified),9.8,.,.,.,-1,5,3
Cc1cccc(NC(=O)CCc2ccccc2)c1C,1.8,-6,-9,2890,-3,-2,7
Cc1nnc(NC(=O)CCS(=O)(=O)Cc2ccccc2)s1,0.1,-7,-26,5495,3,-1,9
NC(=O)CC(NC(=O)c1ccc(Cl)cc1)C(=O)NCCc1ccc(S(N)(=O)=O)cc1 (stereo unspecified),2.1,3,-12,3741,6,-3,1
# Carrying on:
SMILES,RN4220 kill,BJeLR lethal,PrP UTR inh,Autofluor counter,Mtb hypoxia inh,Mtb hypoxia inh growth,ugtP null kill
CC1CN(C(=O)c2ccc(CNS(=O)(=O)c3cccc(C(F)(F)F)c3)cc2)CC(C)O1 (stereo unspecified),4.2,1,-15,2060,8,8,9
CN1CCN(CC(=O)Nc2ccc(OC(F)(F)F)cc2)CC1,4.4,-1,-14,3607,-4,4,4
O=C(Cn1ccc(=O)[nH]c1=O)Nc1ccc(O)c([N+](=O)[O-])c1,1.6,.,-4,2829,17,20,-2
CC(=O)Nc1ccc(NC(=O)CCC(=O)OCC(=O)c2cccc([N+](=O)[O-])c2)cc1,4.5,15,-7,3898,11,6,11
O=C(O)CCN1C(=O)c2ccc(NC(=O)COc3ccccc3)cc2C1=O,3.9,-15,-5,?,1,0,8
CN(c1ccccc1)S(=O)(=O)c1cc(C(=O)N2CCN(c3ncccn3)CC2)ccc1Cl,7.3,.,5,?,7,4,6
CC(C)(C)C(=O)COC(=O)c1cc(-c2cccnc2)nc2ccccc12,2.0,-1,-20,5830,10,5,11
O=C1c2ccccc2C(=O)C1c1ccc(O)cc1,0.9,-1,-50,2599,0,-2,2
CC(=O)c1ccc(NC(=S)NNC(=O)NC2CCCCC2)cc1,7.1,4,-43,4362,13,3,17
O=C(OCCN1CCOCC1)c1ccc(OCCN2CCOCC2)cc1,-3.9,2,-15,2315,.,.,7
Cc1ccc(-n2nc3c(=O)n(CCCC(=O)NCc4ccccc4Cl)nc(C)c3c2C)cc1,2.7,2,-40,5249,-6,-1,5
COc1cc(OC)c(OC)cc1/C=C1\C(=O)NC(=O)N(Cc2ccccc2)C1=O,16,-2,-15,3943,-2,4,4
COc1ccccc1C(=O)Nc1ccc2ccccc2c1,-0.1,12,-109,6031,17,14,3
COCCNC(=S)N1CCN(S(C)(=O)=O)CC1,1.3,-2,-9,4859,1,-2,-4
Fc1ccc(-n2c(Cc3ccccc3)nnc2SCc2nc(-c3cccs3)no2)cc1,8.4,9,-3,11148,13,9,-18
Cn1/c(=N\NC(=O)c2ccccc2Cl)sc2ccccc21,.,8,-54,3116,.,.,.
C=CCn1c(C(CCCC)CC(C)O)n[nH]c1=S (stereo unspecified),1.5,-21,-15,2156,2,3,7
CCN(CC)CCNC(=O)COc1ccc(Cl)cc1Cl,5.2,-11,-8,5633,10,15,2
C/C(=N\NC(=O)CN1CCN(Cc2ccccc2)CC1)c1ccncc1,.,-5,-12,4319,.,.,.
COc1ccc(N/C(N)=N/c2nc(C)c(Cc3ccccc3)c(=O)[nH]2)cc1,7.2,-1,0,.,12,-3,8
Cc1ccc(-n2nnnc2SCC(=O)NC2CCCc3ccccc32)c(C)c1 (stereo unspecified),1.2,6,-4,2039,5,-3,4
COc1ccc(NC(=O)C2CCN(C(=O)Cc3ccccc3)CC2)cc1OC,1.4,-14,-33,3360,-11,-8,-11
CCOc1ccc(CCNS(=O)(=O)c2c(C)n[nH]c2C)cc1OCC,-0.3,-2,13,2725,.,.,2
CCS(=O)(=O)c1ccc(C=NNc2nc3ccccc3o2)cc1,1.3,.,-192,4087,6,5,-4
Cn1c(=O)c2cc(S(=O)(=O)NCCC(=O)NCc3ccccc3Cl)ccc2n(C)c1=O,1.6,4,0,11434,2,6,7

# Gathered by group: the entries above with a CF3 group (3)
SMILES,RN4220 kill,BJeLR lethal,PrP UTR inh,Autofluor counter,Mtb hypoxia inh,Mtb hypoxia inh growth,ugtP null kill
CC(C(=O)Nc1ccccc1C(=O)O)n1c(C(F)(F)F)nc2ccccc21 (stereo unspecified),7.0,7,-23,2551,-2,0,15
CC1CN(C(=O)c2ccc(CNS(=O)(=O)c3cccc(C(F)(F)F)c3)cc2)CC(C)O1 (stereo unspecified),4.2,1,-15,2060,8,8,9
CN1CCN(CC(=O)Nc2ccc(OC(F)(F)F)cc2)CC1,4.4,-1,-14,3607,-4,4,4

# (cont.)
SMILES,RN4220 kill,BJeLR lethal,PrP UTR inh,Autofluor counter,Mtb hypoxia inh,Mtb hypoxia inh growth,ugtP null kill
O=C(/C=C/c1c(Cl)nc2ccccn12)N1CCN(c2ccc(F)cc2)CC1,7.7,-6,-23,2152,-4,7,6
Cc1ccc(NC(=O)/C(C#N)=C/c2ccccc2C(F)(F)F)cc1,-1.5,-1,-23,2526,-6,1,2
Cc1ccccc1-c1nc(CN2CCC(C(=O)NCCCN3CCCC3)CC2)c(C)o1,4.2,2,-7,17690*,12,3,2
O=S(=O)(c1ccccc1)N1CCC(O)(CSc2ccc(Cl)cc2)CC1,-0.5,6,-13,3164,-77,-11,1
O=C1OC[C@H]2CCCN2C(=O)[C@@H](CC(=O)N(CCO)Cc2ccccc2)C/C=C\C[C@H]1Cc1ccc(F)cc1,5.4,.,-25,4134,-9,9,0
CN1CCN(C2Cc3cc(F)ccc3Sc3ccc(Cl)cc32)CC1 (stereo unspecified),-9.9,-2,-22,5575,15,14,50
O=C(CSCc1ccccc1)N1CCN(S(=O)(=O)c2ccc(F)cc2)CC1,2.6,2,-15,?,8,8,4
CC1(c2nnc(-c3ccncc3)o2)CC(c2cccnc2)=NO1 (stereo unspecified),1.0,5,-7,3713,8,8,3
Cc1cc(C)c(C)c(S(=O)(=O)Nc2cccc(S(=O)(=O)Nc3ccccc3C(=O)O)c2)c1C,-1.2,.,-9,2894,-6,-1,13
CCOc1ccccc1NC(=O)CSc1nc(N)c(C#N)cc1C#N,0.2,-2,-5,5702,.,.,4
CCC(=O)Nc1ccc(NC(=O)c2ccc3ccccc3c2)cc1,5.0,4,-38,3736,3,0,12
OC(CNCc1ccccc1)(c1ccc(F)cc1)c1ccc(F)cc1,1.0,5,-27,8864,12,11,-2
CCN(CC)CCOC(=O)c1ccc(NC(=O)CCCN2C(=O)S/C(=C/c3ccc(OC)cc3)C2=S)cc1,2.0,-2,46,6617,-5,5,-6
